# Bioassay records from PubChem.
# EPAC2 ant val: validation of human EPAC2 antagonists | Q8WZA2 | EPAC2 Rap1B BODIPY-GDP exchange, fluorescence | Potency, µM (highest dose often 112 µM), for the others: at the top dose activity, negative = inhibition, usual class: inhibitors | 16,000 compounds, 1.7% hits; active means well fitted inhibition curve with a large enough effect; inconclusive means small, poorly fitted or top-dose-only effect; inactive means no such curve, though single readings can be large or run the other way;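 further: 100% = activation by cAMP agonist control; nearly all actives have a fitted effect of over 40% in size; the record reuses the description of the EPAC1 agonist screen; inactives centre near -10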
# Target sequence (Q8WZA2 whole entry, looked up): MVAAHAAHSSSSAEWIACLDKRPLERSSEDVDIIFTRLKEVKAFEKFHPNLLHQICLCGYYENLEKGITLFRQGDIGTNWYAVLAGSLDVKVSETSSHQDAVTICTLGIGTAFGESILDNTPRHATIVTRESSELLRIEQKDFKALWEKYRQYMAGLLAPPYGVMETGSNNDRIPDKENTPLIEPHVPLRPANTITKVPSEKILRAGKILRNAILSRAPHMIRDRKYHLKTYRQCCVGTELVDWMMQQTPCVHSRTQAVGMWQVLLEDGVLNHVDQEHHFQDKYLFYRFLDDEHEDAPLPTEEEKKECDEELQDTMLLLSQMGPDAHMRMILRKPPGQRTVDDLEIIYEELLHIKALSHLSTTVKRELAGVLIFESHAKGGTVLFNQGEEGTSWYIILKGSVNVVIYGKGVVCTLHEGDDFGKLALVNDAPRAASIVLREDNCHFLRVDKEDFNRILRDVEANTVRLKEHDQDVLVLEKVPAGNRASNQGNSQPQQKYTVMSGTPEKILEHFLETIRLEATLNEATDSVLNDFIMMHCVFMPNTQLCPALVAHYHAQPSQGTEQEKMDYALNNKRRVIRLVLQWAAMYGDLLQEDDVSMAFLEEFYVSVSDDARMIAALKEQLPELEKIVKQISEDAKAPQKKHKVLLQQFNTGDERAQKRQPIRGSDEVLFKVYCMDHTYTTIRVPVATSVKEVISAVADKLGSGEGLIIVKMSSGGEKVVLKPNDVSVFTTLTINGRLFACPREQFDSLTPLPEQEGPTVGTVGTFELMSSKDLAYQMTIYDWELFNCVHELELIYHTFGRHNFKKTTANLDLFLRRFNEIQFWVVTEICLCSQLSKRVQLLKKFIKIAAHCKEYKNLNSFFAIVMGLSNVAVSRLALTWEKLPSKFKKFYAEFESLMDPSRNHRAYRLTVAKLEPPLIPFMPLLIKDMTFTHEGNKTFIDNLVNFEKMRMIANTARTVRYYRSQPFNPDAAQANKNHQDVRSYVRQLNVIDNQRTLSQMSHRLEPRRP
#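 Fluorescent exchange read-out: 100 nM EPAC2 with 250 nM RAP1B–BODIPY-GDP and 50 uM GDP; BODIPY-GDP release lowers fluorescence. Read at 480/540 nm every 5 min for 30 min at room temperature; normalized to 6.5 mM cAMP.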
# An asterisk follows results filed as active; ? = inconclusive; & = joins results of further samples; [ ] = another dose, or the depositor's remark. Potency means the concentration at half of the fitted maximal effect. Not all compounds are listed; rates above refer to the full screens.
SMILES,EPAC2 ant val
CC(C(=O)O)c1ccc(N2Cc3ccccc3C2=O)cc1 (centres undefined),13%
CC(C)Oc1ccc(C(=O)NCC2Cc3cc(F)cc(-c4cnccn4)c3O2)cc1 (centres undefined),?
O=C(c1cnccn1)N1CCC2(CC1)CN(Cc1ccccc1)C2,-9%
COCCn1c(=O)c(-c2cccc(C#N)c2)nc2cnc(Oc3ccccc3)nc21,-20%
O=C1C[C@H]2C=CCc3cccc(c32)CN1Cc1ccc(Br)cc1,?
O=C(O)CO.[NH2-].[NH2-].[Pt+2],2%
COc1cccc(Nc2ncc3nc(-c4cc(F)cc(F)c4)c(=O)n(C[C@H]4CCCO4)c3n2)c1,-16%
O=C1C[C@@H]2c3c(cccc3CN1Cc1ccccc1Br)C[C@@H](O)[C@H]2O,-6%
O=C(NCN1CCOCC1)c1cnccn1,-14%
CC(O)(COc1ccccc1)c1ccc2c(c1)CN(Cc1ccc3nsnc3c1)CCO2 (centres undefined),?
COc1ccc(-c2nc3cnc(N4CCN(C)CC4)nc3n(C3CC3)c2=O)cc1,8%
O=C(c1noc2c1CCCC2)N1CCOc2ccc(CN3CCN(c4ccccn4)CC3)cc2C1,3%
O=c1cnc2cnc(N3CCNCC3)nc2n1CCc1ccccc1,-9%
CCN1CCCC1CNC(=O)c1cc(S(N)(=O)=O)ccc1OC (centres undefined),-11%&-6%&4%&-14%
COc1ccc(Oc2ncc3ncc(=O)n(C[C@H]4CCCO4)c3n2)cc1,?
c1ccc(Nc2cc(-c3ccoc3)ncn2)cc1,-15%
Cn1cnc2c(NC3CCCC3)ncnc21,-1%
CN(C)Cc1ccccc1-c1cncnc1NC1CC1,-7%
COC(=O)[C@H]1[C@H]2C[C@@H]3c4[nH]c5cc(OC)ccc5c4CCN3C[C@H]2C[C@@H](OC(=O)COc2ccc(OC)cc2)[C@@H]1OC,-2%
COc1cc(-c2coc3cc(OC)c(OC)c(OC)c3c2=O)cc(OC)c1OC,-14%
CN(CCO)C(=O)c1cn(C2CCCN(Cc3cc4ccccc4s3)C2)nn1 (centres undefined),-21%
CC(C)CC(NC(=O)CN)C(=O)NC(Cc1ccccc1)C(=O)O (centres undefined),-7%
O=C(C(=O)N1CCOc2ccc(CN3CCN(Cc4ccccn4)CC3)cc2C1)c1ccccc1,-3%
CCCCCCNC(=O)n1cc(F)c(=O)[nH]c1=O,-12%
O=C(N[C@@H]1CCC(=O)N(CC[C@H](Sc2ccc(Br)cc2)c2ccccc2)CC1)OCc1ccccc1,2%
COc1ccc(-n2c(=O)c(-c3cccs3)nc3cnc(OC)nc32)cc1,-3%
O=C1[C@H](Cc2ccccc2)NC/C=C\C[C@H](c2ccc(Cl)cc2)N1Cc1ccc(Cl)cc1,-26%
Cc1cc(-c2ccnc(-n3ncc(C(=O)NCC4CCCN(C)C4)c3C3CC3)n2)c(C)s1 (centres undefined),-7%
CS(=O)(=O)N1CCC[C@@]2(CCN(C(c3ccccc3)c3ccccc3)C2)C1,?
COCCn1c(=O)c(-c2cccs2)nc2cnc(N(C)C)nc21,43%[activator]
CCCCCCCCCC[n+]1cccc2cc(Br)ccc21,?
CCCCCCCC/C=C\CCCCCCCC(=O)NCc1ccc(O)c(OC)c1,?
CCCCN1CC[C@H]2C=CC[C@@H](C(=O)Nc3ccc(Cl)c(C(F)(F)F)c3)[C@H]2C1=O,-9%
CS(=O)(=O)Nc1cccc(-c2ccc3ncnc(Nc4ccccc4)c3c2)c1,-25%
N=C(N)N1CCc2ccccc2C1,31%
CCCCN1CCC(CCC(=O)c2cc(Cl)c(N)cc2OC)CC1,-2%&-14%
COc1ccc(-n2c(=O)cnc3cnc(N4CCN(C)CC4)nc32)cc1,11%
O=C(c1cnccn1)N1CCC2(CC1)CN(c1cccc(-c3ccccc3)c1)C2,?
CNc1ncnc2ccc(-c3ccccc3C)cc12,-31%
O=C1[C@H](Cc2ccccc2)NC/C=C\C[C@@H](c2ccc(Cl)cc2)N1Cc1ccccc1,?
CC(C)NC(=O)N1CCCC2(CCN(C(=O)c3ccncc3)CC2)C1,-20%
COC(C)=O,3%
O=C(O)c1ccc2c3c1cccc3c(=O)n1c3ccccc3nc21,-32%
Cc1ccc(CN2CCC(=O)N(Cc3ccccn3)CC2)c(C)c1,-6%
CCCCCOC(=O)Nc1nc(=O)n([C@@H]2O[C@H](C)[C@@H](O)[C@H]2O)cc1F,-29%
O=c1[nH]c(=O)n([C@@H]2O[C@H](CO)[C@@H](O)[C@H]2O)cc1Br,-22%
NC(=O)c1cccnc1,1%
CCNc1ncc2nc(CCc3ccccc3)c(=O)n(Cc3cccc(OC)c3)c2n1,-32%
CCC1CN(CCNC(=O)c2ccc3c(c2)OCO3)Cc2cc(OC)ccc2O1 (centres undefined),-29%
O=C(c1cc(C(F)(F)F)cc(C(F)(F)F)c1)N1CCC[C@@]2(CCN(Cc3nccs3)C2)C1,?
Cc1cc(C)n(-c2cccc(C(=O)NCC3Cc4cc(Cl)cc(-c5cnccn5)c4O3)c2)n1 (centres undefined),?
O=S(=O)(O)c1cc(O)c2c(N=Nc3ccc(Nc4ccccc4)c4c(S(=O)(=O)O)cccc34)cc(S(=O)(=O)O)cc2c1,?
Cc1nc2cc(NC(=O)[C@@H]3C[C@@H](Sc4ccccn4)CN3Cc3ccccc3)ccc2s1,-31%
O=C(c1cnccn1)N1CCC2(CC1)CN(c1ccccn1)C2,-14%
CCN(Cc1ccncc1)Cc1ccc2c(c1)CN(C(=O)c1ccc(C#CC(C)(C)O)o1)CCO2,11%
CC(CN(C)C)CN1c2ccccc2CCc2ccccc21 (centres undefined),5%
O=C(NCc1ccccn1)c1cnn(-c2ncc3c(n2)-c2ccccc2CC3)c1C1CC1,-10%
CN(C)c1ncc2nc(CCc3ccccc3)c(=O)n(-c3ccccc3)c2n1,-1%
COc1ccc(C(=O)N2CCC3(CCN(Cc4ccncc4)CC3)CC2)cc1,-15%
COC(=O)C1N[C@@H]([C@@H](NC(=O)COc2ccccc2)C(=O)Nc2ccc(OC)cc2)SC1(C)C (some centres undefined),-24%

# An excerpt taken from the entries so far, as a working copy:
SMILES,EPAC2 ant val
COC(C)=O,3%
O=C(O)c1ccc2c3c1cccc3c(=O)n1c3ccccc3nc21,-32%
Cc1ccc(CN2CCC(=O)N(Cc3ccccn3)CC2)c(C)c1,-6%
CCCCCOC(=O)Nc1nc(=O)n([C@@H]2O[C@H](C)[C@@H](O)[C@H]2O)cc1F,-29%
O=c1[nH]c(=O)n([C@@H]2O[C@H](CO)[C@@H](O)[C@H]2O)cc1Br,-22%
NC(=O)c1cccnc1,1%
CCNc1ncc2nc(CCc3ccccc3)c(=O)n(Cc3cccc(OC)c3)c2n1,-32%
CCC1CN(CCNC(=O)c2ccc3c(c2)OCO3)Cc2cc(OC)ccc2O1 (centres undefined),-29%
O=C(c1cc(C(F)(F)F)cc(C(F)(F)F)c1)N1CCC[C@@]2(CCN(Cc3nccs3)C2)C1,?
Cc1cc(C)n(-c2cccc(C(=O)NCC3Cc4cc(Cl)cc(-c5cnccn5)c4O3)c2)n1 (centres undefined),?
O=S(=O)(O)c1cc(O)c2c(N=Nc3ccc(Nc4ccccc4)c4c(S(=O)(=O)O)cccc34)cc(S(=O)(=O)O)cc2c1,?
Cc1nc2cc(NC(=O)[C@@H]3C[C@@H](Sc4ccccn4)CN3Cc3ccccc3)ccc2s1,-31%
O=C(c1cnccn1)N1CCC2(CC1)CN(c1ccccn1)C2,-14%
CCN(Cc1ccncc1)Cc1ccc2c(c1)CN(C(=O)c1ccc(C#CC(C)(C)O)o1)CCO2,11%
CC(CN(C)C)CN1c2ccccc2CCc2ccccc21 (centres undefined),5%
O=C(NCc1ccccn1)c1cnn(-c2ncc3c(n2)-c2ccccc2CC3)c1C1CC1,-10%
CN(C)c1ncc2nc(CCc3ccccc3)c(=O)n(-c3ccccc3)c2n1,-1%
COc1ccc(C(=O)N2CCC3(CCN(Cc4ccncc4)CC3)CC2)cc1,-15%
COC(=O)C1N[C@@H]([C@@H](NC(=O)COc2ccccc2)C(=O)Nc2ccc(OC)cc2)SC1(C)C (some centres undefined),-24%

# (continued)
SMILES,EPAC2 ant val
CC(C)NC(=O)N1CC2(CCN(C(=O)c3cccn3C)CC2)C1,-27%
COc1ccc(NC(=O)N2CCC3(CC2)CCN(C(=O)c2cc(C(F)(F)F)cc(C(F)(F)F)c2)CC3)cc1,?
OC[C@H]1O[C@@](CO)(O[C@H]2O[C@H](CO)[C@@H](O)[C@H](O)[C@H]2O)[C@@H](O)[C@@H]1O,13%
Clc1cccc[n+]1CCCC[n+]1ccccc1Cl,1%
NC(N)=NCCCC(NC(=O)C(N)Cc1ccc(O)cc1)C(=O)O (centres undefined),-16%
Cc1cc(CNC(=O)c2cnn(-c3nccc(-c4cc(C)sc4C)n3)c2C2CC2)on1,-17%
COC(=O)/C=C/C(C)=C/C=C/C(C)=C/C=C/C=C(C)/C=C/C=C(C)/C=C/C(=O)O,7%
Cc1c(N(C)C)c(=O)n(-c2ccccc2)n1C,8%
CCN(Cc1ccncc1)Cc1ccc2c(c1)CN(C(=O)c1ccc(C)cc1)CCO2,-7%
COc1cccc(-c2ccc3ncnc(NCCN4CCOCC4)c3c2)c1,-23%
Cc1cnc(-n2ncc(C(=O)NCCc3cccnc3)c2C)nc1-c1cccs1,?
Nc1nc(Cl)nc2c1ncn2[C@@H]1O[C@H](CO)[C@@H](O)[C@@H]1F,-2%
COCCn1c(=O)c(-c2ccccc2)nc2cnc(N3CCOCC3)nc21,-1%
CC(C)[C@H](N)C(=O)OCCOCn1cnc2c(=O)[nH]c(N)nc21,28%
Cc1nn(-c2ccccc2)c(C)c1CC(=O)NCC1Cc2cc(-c3cncnc3)ccc2O1 (centres undefined),-8%
CN1C(CC(=O)c2ccccc2)CCCC1CC(O)c1ccccc1 (centres undefined),0%
N#C/C(=C\c1ccc(O)c(O)c1)C(=O)NCCCCc1ccccc1,?
COc1cccc(-c2nccc(NCc3ccc(OC)cc3OC)n2)c1,-32%
Cc1csc[n+]1CC(=O)c1ccc(I)cc1,-12%
O=C(Nc1ccc([N+](=O)[O-])cc1Cl)c1cc(Cl)ccc1O,-10%&-12%&-8%
Cc1cc(N(C)C)cc(C)c1C=O,-2%
COc1cccc(CN2Cc3cccc4c3[C@H](C=CC4)CC2=O)c1,?
N[C@@H](Cn1cc(F)c(=O)[nH]c1=O)C(=O)O,-27%
Cc1noc(C)c1-c1ccc2ncnc(NCc3cccnc3)c2c1,-19%
CN1CCc2ccccc2Cc2[nH]c3ccccc3c2CC1,-7%&-14%
COC(=O)[C@@H]1CCCN1C(=O)c1c(OC)cc(=O)n2c1CCN(Cc1c(C)[nH]c3ccccc13)CC2,-25%
CN[C@@H]1[C@H](O[C@H]2[C@H](O[C@H]3[C@H](O)[C@@H](O)[C@H](N=C(N)N)[C@@H](O)[C@@H]3N=C(N)N)O[C@@H](C)[C@]2(O)C=O)O[C@@H](CO)[C@H](O)[C@H]1O,-4%
C/C(=C\CO)CCC(C)CCCC(C)CCCC(C)C (centres undefined),-12%
Nc1nc2ccc([N+](=O)[O-])cc2s1,-11%[239 µM]

# Some of these compounds in order of formula weight, largest number first.
SMILES,EPAC2 ant val
COC(=O)[C@H]1[C@H]2C[C@@H]3c4[nH]c5cc(OC)ccc5c4CCN3C[C@H]2C[C@@H](OC(=O)COc2ccc(OC)cc2)[C@@H]1OC,-2%
CS(=O)(=O)Nc1cccc(-c2ccc3ncnc(Nc4ccccc4)c3c2)c1,-25%
O=c1[nH]c(=O)n([C@@H]2O[C@H](CO)[C@@H](O)[C@H]2O)cc1Br,-22%
NC(=O)c1cccnc1,1%
